Rango complex inh: Rango-importin beta binding inhibition. Rango CFP/YFP FRET sensor + importin beta, 45 min. Potency, µM (doses to about 92.2 µM), for the others: top-dose inhibition of complex formation. 340,000 tested, 0.031% active; active = rising FRET ratio curve, often small or poorly fitted; inconclusive = mostly compound fluorescence or quenching in the first reads; inactive = flat curves in all reads;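 note: potency is the fitted concentration of half-maximal effect; 0% = DMSO wells and 100% = buffer wells lacking importin beta; nearly all actives have a fitted effect of over 15% in size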
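Inhibition scored from the CFP 486 nm/YFP 530 nm FRET ratio 45 min after adding 0.125 microM importin beta to 50 nM Rango biosensor preincubated 5 min with compound (room temperature, PBS with DTT, Tween-20, BSA). No-importin wells as positive control.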
Rango dissoc inh: inhibition of RanGTP-driven Rango-importin beta dissociation; O95149+P62826; Biochemical FRET Rango-importin beta, RanGTP-induced dissociation; Potency, µM (doses to about 46.1 µM), inactives show top-dose activity change, negative = inhibition; 340,000 tested, 0.071% active; active means falling FRET ratio curve, often poorly fitted, with flat reads before Ran was added; inconclusive means other falling curves, or compound fluorescence or quenching; inactive means flat or rising ratio curve;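 note: potency is the fitted concentration of half-maximal effect; % of control where 0% means no effect; nearly all actives have a fitted effect of over 45% in size; -100% = wells without RanGTP and RCC1; the record marks most hits as doubtful in a second field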
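Quantitative HTS using a FRET biosensor: 0.1 uM Rango, 0.25 uM importin beta, 0.6 uM Ran, 2 mM GTP, 0.2 uM RCC1 final, PBS with DTT, Tween-20 and BSA. Post-read taken 45 min after Ran addition.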
GLA inh pH 4.5: blocks human alpha-galactosidase A at pH 4.5; purified enzyme, 4-MU-alpha-Gal fluorescence, pH 4.5; activity change, negative = inhibition, % at 105 µM; AID 1467; 230,000 tested, under 10 active; inconclusive = small, poorly fitted or top-dose-only inhibition, or a rising curve; inactive = flat fitted curve, though single readings scatter; no compound was filed as active;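 note: 0% = full activity with enzyme and -100% = basal without enzyme; dose as in the result columns while the protocol names 77 µM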
Target sequence (P06280 whole entry, looked up): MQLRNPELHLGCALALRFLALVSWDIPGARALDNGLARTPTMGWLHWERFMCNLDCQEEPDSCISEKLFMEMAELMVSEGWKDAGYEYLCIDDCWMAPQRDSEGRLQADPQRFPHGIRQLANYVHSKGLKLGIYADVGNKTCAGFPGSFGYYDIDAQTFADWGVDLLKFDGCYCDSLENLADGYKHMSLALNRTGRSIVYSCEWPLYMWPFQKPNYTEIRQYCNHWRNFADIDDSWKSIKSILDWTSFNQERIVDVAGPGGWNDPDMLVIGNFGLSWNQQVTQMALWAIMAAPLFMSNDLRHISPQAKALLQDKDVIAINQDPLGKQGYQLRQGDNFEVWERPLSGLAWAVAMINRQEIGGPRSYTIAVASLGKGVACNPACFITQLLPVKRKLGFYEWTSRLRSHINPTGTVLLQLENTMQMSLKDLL
miR-21 reporter: raises the signal of a miR-21 reporter. HeLa miR-21 FLuc reporter, luciferase, 48 h. Potency, µM (doses to about 38.3 µM), inactives show top-dose reporter change, positive = more light. 340,000 tested, under 10 active; active = well fitted rising curve with a large enough effect; inconclusive = small, poorly fitted or top-dose-only effect; inactive = no such curve, though single readings can be large or run the other way;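 note: % of control where 0% means no effect; miR-21 action dims this reporter so a rising signal means less miR-21 action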
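HeLa cells endogenously expressing miR-21, stably carrying CMV-driven firefly luciferase with a downstream miR-21 binding site, 2000 cells/well. Titrations up to approximately 40 uM, 48 hours; luciferase luminescence read.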
* marks the source's active call; other numbers are inactive results; ? = inconclusive; / = not tested or not shown; & = joins results of further samples. Not all compounds are listed (hit frequency here may not be typical).

A first look, 2 compounds:
SMILES	Rango complex inh	Rango dissoc inh	GLA inh pH 4.5	miR-21 reporter
CCc1ccc(N2CC(C(=O)OCC(=O)Nc3ccc([N+](=O)[O-])cc3)CC2=O)cc1 (stereo not given)	-2.4%	5%	/	/
O=C(O)COc1ccc(S(=O)(=O)c2ccc(OCC(=O)O)cc2)cc1	-3.5%	5%	3	-8%

All compounds of this part, repeating the preview:
SMILES	Rango complex inh	Rango dissoc inh	GLA inh pH 4.5	miR-21 reporter
CCc1ccc(N2CC(C(=O)OCC(=O)Nc3ccc([N+](=O)[O-])cc3)CC2=O)cc1 (stereo not given)	-2.4%	5%	/	/
O=C(O)COc1ccc(S(=O)(=O)c2ccc(OCC(=O)O)cc2)cc1	-3.5%	5%	3	-8%
CCCCN(C(=O)C1CCCC1)c1c(N)n(Cc2ccccc2)c(=O)[nH]c1=O	0.7%	5%	/	/
Cc1nn(C)c(C(=O)NNC(=S)NC2CCCCC2)c1Cl	5.9%	-1%	6	-18%
CC(C)n1c(SCC(N)=O)nc2c1c(=O)n(C)c(=O)n2C	1.9%	-1%	-8	-2%
CCC(Sc1nnc(C)c(=O)[nH]1)C(=O)Nc1cccc2ccccc12 (stereo not given)	-2.9%	7%	/	-4%
CC1CCN(CC(=O)Nc2ccccc2C(=O)NC2CC2)CC1	-0.3%	-9%	/	/
CCCCn1nc2cc(C(=O)NCC34CC5CC(CC(C5)C3)C4)ccc2c1OCC	-3.9%	9%	0	3%
COc1ccc(-c2cccc(C(=O)Nc3ccccc3C)c2)cc1	1.0%	14%	2	-10%
COC(=O)C1=C(NC(=O)C(C)(C)C)CCS1	?	?	1	0%
CCCN1C2CCCC1CC(NC(=O)Nc1ccc(C(C)C)cc1)C2 (stereo not given)	0.6%	-5%	-2	7%
COc1ccc(C(=O)N[C@H](C(=O)Nc2nc3ccccc3[nH]2)C(C)C)cc1	2.1%	13%	0	-9%
N#CC1=C(N)Oc2ccc3ccc(O)cc3c2C1c1ccsc1 (stereo not given)	-0.1%	10%	3	-4%
Cc1nn(Cc2c(F)c(F)c(F)c(F)c2F)c(C)c1NC(=O)c1nn(C)cc1Br	2.3%	-25%	/	0%
Cc1nc(N)[nH]c(=O)c1CCCNc1ccc(CCCCC2(CCl)OCCO2)cc1	2.8%	0%	/	/
O=C(O)CNS(=O)(=O)c1ccc(F)cc1	5.4%	14%	-2	-2%
CC(C)(C)NC(=O)C(c1c[nH]c2ccccc12)N(C(=O)Cn1nnc(-c2ccc(F)cc2)n1)c1cccc(O)c1 (stereo not given)	-1.6%	1%	-10	?
CC(C)=CC(=O)OCC(=O)Nc1ccccc1Cl	-1.0%	-19%	3	-18%
O=C(Nc1ccc(C2=NCCN2)cc1)c1ccc(C(=O)Nc2ccc(C3=NCCN3)cc2)c(Cl)c1	?	9%	-8	7%
COc1cccc(C2CC(c3cccc(Br)c3)n3ncnc3N2)c1 (stereo not given)	?	?	5	-6%

A different layout for four compounds above:
mol | Rango complex inh | Rango dissoc inh | GLA inh pH 4.5 | miR-21 reporter
CC(C)(C)NC(=O)C(c1c[nH]c2ccccc12)N(C(=O)Cn1nnc(-c2ccc(F)cc2)n1)c1cccc(O)c1 (stereo not given) | -1.6% | 1% | -10 | ?
CC(C)=CC(=O)OCC(=O)Nc1ccccc1Cl | -1.0% | -19% | 3 | -18%
O=C(Nc1ccc(C2=NCCN2)cc1)c1ccc(C(=O)Nc2ccc(C3=NCCN3)cc2)c(Cl)c1 | ? | 9% | -8 | 7%
COc1cccc(C2CC(c3cccc(Br)c3)n3ncnc3N2)c1 (stereo not given) | ? | ? | 5 | -6%

Further compounds follow.
SMILES	Rango complex inh	Rango dissoc inh	GLA inh pH 4.5	miR-21 reporter
COc1ccc(NC(=O)CSc2nc(C3CC3)nc3ccccc23)c(OC)c1	-1.2%	2%	/	-1%
CCn1c(SCC(=O)Nc2ccc3c(c2)c2ccccc2n3CC)nnc1-c1ccco1	-5.0%	13%	1	0%
Cc1cccc(NC(=O)CSc2nc3ccccc3nc2N2CC(C)OC(C)C2)c1 (stereo not given)	4.3%	-3%	/	0%
O=C(CSC1CC(=O)N(CCc2ccccc2)C1=O)Nc1ccc(Cl)cc1 (stereo not given)	-0.9%	-11%	-5	-8%
COc1ccc(N2CCN(C(=O)c3cccc(N4C(=O)C5CC=CC(C)C5C4=O)c3)CC2)cc1 (stereo not given)	6.1%	-4%	7	-4%
COc1ccc(/C=N/Nc2nc(-c3ccc(C)cc3)c(NC(C)=O)s2)cc1	-0.9%	-8%	-5	-21%
Nc1nc2cc(Cl)c(Br)cc2o1	2.2%	-9%	/	/
Cc1ccc(C(=O)C(OC(=O)CNS(=O)(=O)c2ccccc2)c2ccccc2)cc1 (stereo not given)	-4.6%	-4%	18	-2%
O=C(CSc1nc2ccc(Cl)cc2o1)NCc1ccc2c(c1)OCO2	0.9%	-9%	-5	-10%
COc1cccc(C(=O)O[C@@H]2[C@H](Cc3ccccc3)NS(=O)(=O)[C@H]3C[C@@H]4C=C[C@]23O4)c1	0.7%	2%	/	/
C/C(=N\NC(=O)c1cccc(S(=O)(=O)N2CCOCC2)c1)c1ccc(OCC(=O)N(C)C)cc1	-0.4%	-3%	/	/
O=C(NN1C(=O)C2C(C1=O)C1C=CC2C12CC2)c1cccc(Cl)c1 (stereo not given)	-2.7%	7%	-5	1%
Cc1ccc2nc(SCC(=O)N3CCN(c4ccccc4)CC3)nc(=O)n2c1	-1.6%	17%	/	/
O=c1oc2c(Cl)cc(Cl)cc2cc1-c1nnc(Nc2ccccc2F)s1	/	/	12	1%
Cc1ccc(S(=O)(=O)NNC(=O)c2ccc3ccccc3n2)cc1	0.5%	3%	/	-11%
COCc1cc(Sc2ccc(Cl)cc2Cl)nc(-c2ccccc2)n1	?	9%	-7	-1%
COc1ccccc1C1CC(c2ccccc2)=NN1C(=O)c1ccccc1 (stereo not given)	-1.2%	-1%	/	5%
CCn1cc(C(=O)NCCCOC(C)C)c2cc(OC)c(OC)cc2c1=O	-1.0%	-13%	-8	-3%
Cc1c(CCC(=O)N2CCC(C(=O)NCCCCCC(=O)O)CC2)c(=O)oc2cc3oc4c(c3cc12)CCCC4	0.3%	23%	/	8%
C=CC[n+]1cccc(-c2cc3ccc(C)cc3[nH]2)c1	-1.7%	0%	/	-2%
O=C(CCc1c[nH]c2ccccc12)N1CCCCCCC1	0.0%	15%	/	-24%
C=CCn1ccc(O)c(Cc2ccc(Cl)cc2)c1=O	5.7%	4%	/	0%
Cn1c(=S)n(CCC(=O)O)c2ccccc21	-1.6%	-1%	1	-7%
Cc1cnc(NC(=O)CCN2C(=O)C3CCCCC3C2=O)s1 (stereo not given)	-0.6%	9%	10	4%
Cc1ccc(NC(=O)NC(=O)COc2ccc(Cl)cc2Cl)c(C)c1	0.9%	9%	1	-4%
CC(C)(C)c1csc(NC(=O)CCc2ccccc2)n1	0.5%	9%	/	-19%
Cc1ccc(CS(=O)(=O)Cc2ccc(C(=O)NCCCN3CCOCC3)o2)cc1	-2.5%	-3%	2	-5%
CN1CCN(C(=O)c2ccc3c(c2)NC(=O)C(C)(C)O3)CC1	0.0%	-6%	4	-12%
CC(Oc1ccc(C(=O)NCCc2ccccc2)cc1)C(=O)O (stereo not given)	1.4%	1%	6	-7%
CCc1ccc(-n2c(=O)c3ccccc3n3c(=S)[nH]nc23)cc1	-0.4%	-3%	/	-2%
Cc1ccc2c(c1)c1nc3ccccc3nc1n2CCN1CCOCC1	?	?	3	-14%
O=C(O)CCc1ccc(NCc2cccc(Oc3ccccc3)c2)cc1	-1.0%	-12%	/	/
Cc1cc(C)c([N+](=O)[O-])cc1-c1ccc(/C=N/c2c(-c3ccco3)nc3ccccn23)o1	?	?	4	-16%
O=C(Cn1cnc2c(cnn2-c2ccc(Cl)cc2)c1=O)NCC1CCCO1 (stereo not given)	-3.7%	-3%	2	-2%
O=C(NCCc1cccc(Cl)c1)c1cccs1	-2.2%	2%	7	-52%
CC[C@]12c3[nH]c4cc(-c5ccco5)ccc4c3CCN1C(=O)[C@@H](CC(=O)NCc1ccc(OC)c(OC)c1)C[C@@H]2C(=O)N1CCN(C(=O)C2CC2)CC1	-2.1%	-7%	/	/
CCOc1ccc(-n2c(C)nc(O)c2N=Nc2ccccc2)cc1	0.6%	-1%	2	-5%
CSc1nc(C)c2c(c1C#N)CCCC2	-1.4%	7%	-13	-14%
Cc1ccc(O)c(C(=O)c2cnn(-c3ccccc3)c2)c1	-3.0%	12%	-6	-37%
CNC(=O)c1[nH]cnc1C(=O)Nc1ccc(C)cc1	8.6%	8%	1	-1%
O=C(c1ccc(Cl)c(S(=O)(=O)N2CCCC2)c1)N1CCOCC1	1.2%	-4%	/	-3%
Cn1ccnc1C(=O)c1cccc(Br)c1	-2.8%	18%	/	-19%
CC(NC(=O)C12CC3CC(CC(C3)C1)C2)c1ccc(F)cc1 (stereo not given)	1.8%	-8%	/	1%
COC(=O)[C@@H](C)NC(=O)c1ccc2oc(CCc3ccccc3)nc2c1	0.7%	-2%	/	-57%
CCC1C(c2ccccc2)N(C)C(c2ccccc2)CC1(O)c1ccccc1 (stereo not given)	?	0%	1	14%
CC(C)c1nnc(NC(=O)CC23CC4CC(CC(C4)C2)C3)s1	-3.3%	-1%	/	0%
Cc1ccc(-c2n[nH]c(=S)c3ccccc23)cc1	-3.4%	-1%	6	0%
NNC(=O)CN1C(=O)Nc2ccc(Br)cc2C1c1ccccc1 (stereo not given)	0.3%	?	6	3%
CCCc1nc(NCCO)c(C#N)c2c1CCCC2	-1.2%	12%	-1	10%
COC(=O)c1ccc(N2CCOCC2)c(NC(=O)c2cc3ccccc3o2)c1	-1.5%	1%	/	/
O=C(CSc1ccc(-c2ccc(Cl)cc2)nn1)NC1CCCC1	-4.5%	-2%	/	-3%
Cc1cc(C(=O)Nc2ccc3nc(C)sc3c2)c2ccccc2n1	?	-1%	8	-31%
CN(C)c1ccc(N=Cc2nc(-c3ccccc3)oc2O)cc1	?	?	4	-15%
Cc1[nH]c(C)c(S(=O)(=O)Nc2ccccc2Cl)c1C(=O)N1CCCC1	-0.5%	1%	/	0%
Cc1cccc(NC(=O)CSc2ncnc3nc[nH]c23)c1C	0.8%	-9%	16	-6%
Cc1cc(C(=O)COC(=O)CCc2nc3ccccc3c(=O)[nH]2)c(C)n1CC1CCCO1 (stereo not given)	-2.9%	-17%	1	-5%
CCN1C(=O)[C@H]2[C@@H](c3ccc(Cl)cc3)N3C(=O)CN(CC4CC4)C(=O)[C@@]3(Cc3ccccc3)[C@H]2C1=O	-1.4%	-8%	/	0%
CCN(CC(=O)NCc1cccnc1)S(=O)(=O)c1ccc(OC)cc1	0.5%	-4%	/	-2%
CCc1ccc(N2CC(C(=O)OCC(=O)c3c(N)n(CC(C)C)c(=O)n(C)c3=O)CC2=O)cc1 (stereo not given)	-2.3%	12%	/	/
CCOC(=O)C(=CNc1ccc2c(c1)nnn2-c1ccc(Cl)cc1)C(=O)OCC	-1.2%	-7%	3	-6%

Some of the entries above in a different format.
Value order – Rango complex inh, Rango dissoc inh, GLA inh pH 4.5, miR-21 reporter
O=C(CSc1nc2ccc(Cl)cc2o1)NCc1ccc2c(c1)OCO2
 : 0.9%, -9%, -5, -10%
COc1cccc(C(=O)O[C@@H]2[C@H](Cc3ccccc3)NS(=O)(=O)[C@H]3C[C@@H]4C=C[C@]23O4)c1
 : 0.7%, 2%, /, /

Remaining list, next part.
SMILES	Rango complex inh	Rango dissoc inh	GLA inh pH 4.5	miR-21 reporter
COC(=S)N/C(=N\S(=O)(=O)c1ccc(Cl)cc1)c1ccccc1	0.0%	5%	/	-1%
COc1ccc(NC(=O)C/C(C)=N/NC(=O)C2CCCCC2)c([N+](=O)[O-])c1	-0.4%	-3%	/	-6%
Cc1ccc(S(=O)(=O)c2nc(-c3ccco3)oc2SC(C)C)cc1	2.9%	24%	/	-11%&-3%
CCOC(=O)c1cc2nc(-c3ccccc3)cc(C)n2n1	-1.0%	-7%	/	-7%

Whole records, quoted from the list:
O=C(O)CNS(=O)(=O)c1ccc(F)cc1 as listed: Rango complex inh: 5.4%; Rango dissoc inh: 14%; GLA inh pH 4.5: -2; miR-21 reporter: -2%
CC1CCN(CC(=O)Nc2ccccc2C(=O)NC2CC2)CC1 as listed: Rango complex inh: -0.3%; Rango dissoc inh: -9%; GLA inh pH 4.5: /; miR-21 reporter: /

Screening data deposited in PubChem BioAssay by National Center for Advancing Translational Sciences (NCATS).
